# Screening results (PubChem BioAssay)
# BJeLR lethal = MLPCN primary cell-based screen for lethality selective to Ras in HRASV12 cells | AID 1554, 2009 | BJeLR (HRASV12) viability, CellTiter-Glo ATP luminescence, 48 h; reference of the scale not given here | hit rate 0.17% among 300,000 | inhibition, % (test concentration not listed);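 active = replicate mean above 50%; inconclusive = above 50% but judged a plate artefact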;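 note: 50 nL library stock added to about 25 µL; numbers are from one replicate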
# PrP UTR inh = inhibition of PrP 5' UTR reporter expression | hit rate 0.35% among 340,000 | inhibition, % (concentration not given with the values) | cell-based PrP 5' UTR mRNA reporter, plate reader | AID 488862, 2010;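 active = every replicate at 50% or more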;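 note: 0 = median of the neutral control wells; tested in H4 reporter cells; numbers are from one replicate; inactives centre near -14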
# ugtP null kill = growth inhibition of ugtP-null S. aureus, primary screen, RN4220 ugtP deletion, OD600; 16 h; some inactives read as strong as hits; AID 1259309, 2017; growth inhibition, % (no concentration beside the values); hit rate 0.54% among 330,000;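 active = z-score under -3 and OD600 up to 0.15 on both plates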;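 note: plate controls were untreated wells for no effect and antibiotic for full effect; wells of about 80 µL received 100 nL stock; the first replicate is given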
# Autofluor counter = compound fluorescence in toxin protease inhibitor counterscreen; fluorescence intensity (test concentration not listed); compound autofluorescence counterscreen, microsphere flow cytometry; hits give high values; hit rate 3.1% among 360,000;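 active = at least 3 SD above the mean of all compounds, about 16000 in these data; inconclusive = too few beads counted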;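 note: 100 nL of 1 mM stock went into each well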
# Mtb hypoxia rep = PubChem AID 1159583; hit rate 0.1% among 300,000; fluorescence inhibition, % (test concentration not listed); M. tuberculosis hypoxia-regulated fluorescent reporter, fluorescence;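 active = 35 to 45% if threefold the growth effect, above 45% if 1.5-fold the growth effect; inactive = the rest, general growth blockers included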;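 note: wells of about 50 µL received 100 nL stock; 0% = vehicle wells and 100% = reference inhibitor wells; whole bacteria with a GFP reporter of the hypoxia response; strong numbers were not always called active; many hits fall short of the cut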
# RN4220 kill = growth inhibition of S. aureus RN4220, primary screen, OD600. 16 h. inhibition, % (test concentration not listed). hit rate 0.33% among 330,000. AID 1259311, 2017;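 active = z-score of -3 or lower and OD600 up to 0.18 on both plates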;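 note: plate controls were untreated cells for no effect and reference antibiotic for full effect; stock transfer was 100 nL into about 80 µL; one replicate is shown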
# Mtb hypoxia rep growth = further read-out of Mtb hypoxia rep, marked with its call; growth inhibition, %; measured here: M. tuberculosis growth (absorbance);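 0% = vehicle and 100% = reference antibiotic; read after six days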
# Active calls of the source: *; ? = inconclusive; · = no result given.
SMILES,BJeLR lethal,PrP UTR inh,ugtP null kill,Autofluor counter,Mtb hypoxia rep,Mtb hypoxia rep growth,RN4220 kill
Cn1c(CSc2ncccn2)nnc1SCC(=O)N1CCCc2ccccc21,-1,-4,4,10764,3,5,1.9
CCCCCN(C(=O)CCC(=O)OC(C)C(=O)c1ccccc1)c1c(N)n(CCCC)c(=O)[nH]c1=O (stereo not given),-3,-12,-5,6334,-4,-6,-0.6
COc1ccc2nc(SCC(=O)Nc3cc(C)on3)[nH]c2c1,-9,·,-2,12566,3,5,2.5
CCCCNC(=O)COC(=O)c1ccccc1F,4,-23,8,4185,14,0,4.4
Cn1nnnc1SCC(=O)Nc1ccc(S(=O)(=O)N2CCOCC2)cc1,-3,-7,3,4781,13,3,6.2
CCN(CC)CCCNc1nc2cc(OC)c(OC)cc2c2nc(-c3ccccc3)nn12,0,-10,-8,3420,72*,30*,18
Cc1ccc(C)c(-n2c(SCC(=O)N3CCC(C(=O)O)CC3)nnc2-c2cccc(Cl)c2)c1,6,-12,1,4352,7,2,-0.3
NS(=O)(=O)c1ccc(NC(=O)c2ccc(CSc3ccccc3)o2)cc1,9,-14,-3,6086,7,11,3.0
CC1CN(C(C)C)C(=S)N(c2ccccc2)C1=O (stereo not given),·,-72,1,4137,6,7,3.7
CCOc1ccc2c(c1)nc(SCC(=O)c1ccc(Br)s1)n2C,-9,-16,19,16282*,5,0,19
CC1(C)CC(=O)C(C=NCCN2CCN(C3CC(=O)N(c4ccc(Cl)c(Cl)c4)C3=O)CC2)=C(O)C1 (stereo not given),3,-40,0,4395,13,-4,8.9
CCOC(=O)N1CCN(S(=O)(=O)c2c[nH]c(C(=O)OC)c2)CC1,0,-22,5,5246,6,2,3.6
COCCn1c(SCC(=O)Nc2ccc(OC)c(S(N)(=O)=O)c2)nc2ccccc2c1=O,7,-17,3,4087,5,-2,4.8
CCN1C(=O)N[C@@H](c2ccccc2)[C@H](C(C)=O)[C@H]1C,-4,-18,·,4043,·,·,·
CCN(c1ccccc1)S(=O)(=O)c1ccc(C(=O)Nc2cccc(NC(C)=O)c2)cc1,·,-17,-4,3497,1,0,6.2
CCCCN1Cc2ccccc2Oc2cc(Br)ccc2S1(=O)=O,·,-15,9,3091,12,8,-3.7
COc1ccc(C(=O)NN=C(C)c2cccc(NC(=O)c3ccncc3)c2)cc1OC,·,·,9,·,1,-5,-0.3
NC(=O)COc1ccc(NC(=O)OCc2ccccc2)cc1,-3,-34,-1,2546,19,12,-8.1
C[C@]12C=CC(=O)C=C1CCC1C2CC[C@@]2(C)C1CCC21OCCO1 (stereo not given in full),·,-18,4,4027,16,9,9.4
CCOC(=O)c1sc2c(c1C)c(=O)c(C(=O)OCC)cn2CC,4,-21,1,19706*,5,8,6.1
Cc1ccccc1NC(=O)C1CCN(c2cc(-c3ccccc3)nc3ncnn23)CC1,9,-16,-3,2958,18,-22,-21
CCOC(=O)c1c(-c2ccccc2)oc2ccc(OCC(=O)NNC(=O)CCC(=O)O)cc12,4,-16,-2,3659,8,3,2.0
Cc1cc(C(=O)O)ccc1N=Cc1c(O)ccc2ccccc12,0,-8,4,3561,11,6,7.2
Cc1ccccc1N1C(=O)C2ON(c3ccccc3)C(c3ccncc3)C2C1=O (stereo not given),-2,-40,-5,23643*,3,3,1.0
COc1ccccc1N(CC(=O)NCc1ccco1)S(C)(=O)=O,3,8,7,4523,9,1,10.0

# Copied from the list.
# CCN1C(=O)N[C@@H](c2ccccc2)[C@H](C(C)=O)[C@H]1C @ BJeLR lethal = -4
# CC1(C)CC(=O)C(C=NCCN2CCN(C3CC(=O)N(c4ccc(Cl)c(Cl)c4)C3=O)CC2)=C(O)C1 (stereo not given) @ BJeLR lethal = 3
# CCOC(=O)c1c(-c2ccccc2)oc2ccc(OCC(=O)NNC(=O)CCC(=O)O)cc12 @ BJeLR lethal = 4

# Remaining list, next part.
SMILES,BJeLR lethal,PrP UTR inh,ugtP null kill,Autofluor counter,Mtb hypoxia rep,Mtb hypoxia rep growth,RN4220 kill
COc1cc2c(cc1OC)C(C)N(C(=O)c1cc3n(n1)C(C(F)(F)F)CC(c1ccco1)N3)CC2 (stereo not given),-4,-21,8,2945,2,8,2.7
COc1ccc(N2CCN(C(=S)Nc3ccc(OC)cc3OC)CC2)cc1,0,-12,0,6615,-26,-12,-1.1
O=C(Nc1ccccc1F)c1cc(C(=O)Nc2ccccc2F)cc([N+](=O)[O-])c1,0,-8,5,·,12,3,2.4
CC1=C(C(=O)N2CCCCCC2)C2(CCC(C)CC2)OC1=O (stereo not given),-6,-23,1,?,17,3,2.9
Cc1cccc(C)c1NC(=O)CN1C(=O)C(C)Oc2ccccc21 (stereo not given),2,0,4,4617,-13,-2,-2.9
O=C(NCc1ccccn1)C(=O)NCC(c1ccco1)N1CCOCC1 (stereo not given),2,-15,6,6136,7,8,0.2
CCN1C(=O)NC(c2cccc(C(F)(F)F)c2)C(C(C)=O)C1C (stereo not given),·,·,7,·,16,9,5.3
COC(C(=O)Nc1ccnn1C1CCN(C(=O)c2cccc(F)c2)CC1)c1ccccc1 (stereo not given),-7,-11,17,4345,7,0,7.8
Cc1ccc2ncnc(Nc3ccc(C)c(C)c3)c2c1,7,-31,-4,10801,11,-2,13
Cc1ccc2c(c1)nnn2C1CCN(CC(=O)NNC(=O)c2ccco2)CC1,·,-35,10,3744,6,12,-0.5
O=C(NN=Cc1c(Cl)cccc1Cl)C(=O)NC1CC1,·,·,10,·,8,1,16
COC(=O)C1=C(C(=O)OC)[C@@H]2Nc3ccccc3[C@@]23C[C@@H](C(=O)OC)N(C(=O)c2cccs2)C3=N1,6,-10,·,3951,·,·,·
CN(C)S(=O)(=O)c1cc(NC(=O)COC(=O)c2ccc3c(c2)OCO3)ccc1Cl,·,-4,14,2479,6,3,2.2
COc1ccc(Br)cc1/C=N/NC(=O)c1cc(OC)c(OC)c(OC)c1,3,4,·,2643,·,·,·
O=C(NCc1ccco1)c1cccc(S(=O)(=O)N2CCc3ccccc32)c1,-1,-4,8,1908,11,-3,3.5
Cc1nc2cc(-c3ccccc3)nn2c(C)c1CCC(=O)NC(C)c1ccc2c(c1)OCCO2 (stereo not given),0,6,16,4939,3,-1,-7.7
N#C/C(=N\Nc1ccc(Cl)cc1)C(=N)N1CCCCCC1,2,-48,·,3414,·,·,·
CN(c1ccccc1)S(=O)(=O)c1ccc(Cl)c(C(=O)NCc2ccccc2CN2CCCC2)c1,·,-10,15,3550,10,5,1.2
CC(=O)/C(=N/Nc1ccccc1)Sc1nnc(CCc2ccccc2)n1-c1ccccc1,1,-3,·,2757,·,·,·
COC(=O)c1ccc2c(c1)C(=O)/C(=C/c1ccc(O)cc1)O2,-5,-28,-7,2096,7,12,5.8
Cc1cc(SCC(=O)Nc2cccc(S(=O)(=O)NC3=NCCCCC3)c2)c(C)cc1Br,9,-9,-12,10122,5,-2,1.9
CCN(CC)S(=O)(=O)c1ccc2[nH]cc(C(=O)NCCCN3CCCCC3)c(=O)c2c1,11,-4,4,7200,8,8,2.7
C[C@@]12C(=O)Nc3ccc(F)cc3C(=O)N1[C@H]1c3cc(Br)ccc3OC[C@@H]1[C@@H]2c1ccccc1,·,-17,-8,3487,0,3,-27
COc1cccc(C(=O)N(c2ccccc2)C2C=CS(=O)(=O)C2)c1 (stereo not given),-10,-16,-3,2090,-7,0,5.7
CCOC(=O)c1[nH]c2c(c1-c1ccccc1)C(=O)CC(c1ccccc1)C2 (stereo not given),-6,-26,9,4278,·,·,6.0

# Complete entries from above. Order of values: BJeLR lethal, PrP UTR inh, ugtP null kill, Autofluor counter, Mtb hypoxia rep, Mtb hypoxia rep growth, RN4220 kill
# Cc1ccc2c(c1)nnn2C1CCN(CC(=O)NNC(=O)c2ccco2)CC1 as listed: ·, -35, 10, 3744, 6, 12, -0.5
# Cc1cccc(C)c1NC(=O)CN1C(=O)C(C)Oc2ccccc21 (stereo not given) as listed: 2, 0, 4, 4617, -13, -2, -2.9
# COc1cccc(C(=O)N(c2ccccc2)C2C=CS(=O)(=O)C2)c1 (stereo not given) as listed: -10, -16, -3, 2090, -7, 0, 5.7

# Remaining list, next part
SMILES,BJeLR lethal,PrP UTR inh,ugtP null kill,Autofluor counter,Mtb hypoxia rep,Mtb hypoxia rep growth,RN4220 kill
COc1cc(OC)c(C(=O)N2CCN(c3ccccn3)CC2)cc1OC,-5,-2,8,3367,-1,14,5.0
Cc1ccc(CN(C)C(=O)COc2ccc(S(=O)(=O)N3CCCC3)cc2[N+](=O)[O-])c(C)c1,·,·,-1,5495,3,13,1.9
CCC(C)(C)NC(=O)CCn1c(-c2ccccc2)cc(C(C)=O)c1C,-1,-23,-1,1982,11,-1,3.1
Cc1cccc(NC(=O)NNC(=O)c2ccc3ccccc3c2)c1,5,-17,0,6054,1,1,-0.9
O=C(CC(n1cncn1)C(Cl)(Cl)Cl)c1ccc([N+](=O)[O-])cc1 (stereo not given),4,4,0,3813,2,12,3.2
CC(C)(C)C(=O)COC(=O)c1c2c(nc3ccccc13)CCC2,-3,-36,1,4440,12,1,3.4
O=C(CCc1nc(-c2ccc(Cl)cc2)no1)NCC1CCCO1 (stereo not given),2,-2,3,4512,-16,-16,10
Cc1ccc(-c2nnc(N3CCOCC3)c3ccccc23)cc1S(=O)(=O)NCc1cccnc1,·,3,1,4356,1,-4,4.6
CCCCCCC1NC(C(=O)O)CS1 (stereo not given),1,-14,-3,4264,3,5,0.6
Cc1cc(C)n(Cc2cccc(C(=O)NN=Cc3cccnc3)c2)n1,·,·,-1,·,-6,12,1.0
CC1(C)CC(NC(=O)CCC2CCCC2)CC(C)(C)N1,5,-9,3,3032,·,·,-1.6
Nc1nnc(CCS(=O)(=O)c2cc(Cl)ccc2Cl)s1,1,-22,-3,3039,-2,3,-4.9
CCCCOc1cccc(OCCCC)c1C(=O)Nc1cc(C)on1,-4,-38,5,9630,-3,2,6.3
COc1ccc(NC(=O)CS(=O)c2cccc(C(F)(F)F)c2)cc1 (stereo not given),-4,-8,3,?,1,-3,2.5
Cc1c(CCO)c(=O)[nH]n1S(=O)(=O)c1cccc(C(F)(F)F)c1,-2,-9,3,6382,6,0,5.0
CCOc1ccc2nc(NCCNC(=O)Nc3cccc(C)c3)c(C#N)cc2c1,-3,-6,0,4139,-1,7,-3.3
COc1ccc(C(=O)OC(C)CN2CCOCC2)cc1 (stereo not given),-6,-13,2,3323,17,3,2.7
O=C1O/C(=C/c2ccccc2)c2ccccc21,1,-20,3,2238,1,-2,11
O=S1(=O)CCOC[C@H](c2ccccc2)N1Cc1ccccc1,-7,-19,·,3172,·,·,·
CC(=O)Nc1ccc2c(c1)CCC2=O,16,-13,0,5174,-2,-2,2.7
O=C(CCN1C(=O)C2C3C=CC(C3)C2C1=O)NC1CCCc2ccccc21 (stereo not given),-1,-10,0,4713,·,·,3.5
COc1ccc(/C=C2/SC(=O)NC2=O)cc1,-3,-28,·,2389,·,·,·
O=C1NCC(Nc2ccccc2Cl)C(=O)N1 (stereo not given),·,-8,9,2845,16,8,4.0
Cc1ccc(C(=O)O/N=C/c2c(C)nn(C)c2Cl)cc1,-7,48,·,3382,·,·,·
O=C(N/N=C\C=C\c1ccco1)c1cc(-c2ccc3ccccc3c2)n[nH]1,4,8,·,2150,·,·,·
# Going on with the list.
SMILES,BJeLR lethal,PrP UTR inh,ugtP null kill,Autofluor counter,Mtb hypoxia rep,Mtb hypoxia rep growth,RN4220 kill
CC(Sc1nnc(-c2cccnc2)n1N)C(=O)N1CCOCC1 (stereo not given),9,-30,10,·,13,1,4.1
CCCN(CCC)CCCNC(=O)c1ccc(CS(=O)(=O)c2c(Cl)cccc2Cl)o1,0,-3,8,3821,-9,9,-0.7
CN1CCCCCC1=Nc1ccc([N+](=O)[O-])cc1,-3,-13,10,2847,15,-1,0.7
Cn1c(O)c(C=NC2CCN(Cc3ccccc3)CC2)c(=O)[nH]c1=O,-1,-26,9,3960,12,6,2.3
O=C(COC(=O)c1ccc(O)cc1)Nc1ccccc1,-9,-22,6,2979,-10,2,2.2
O=C(CN1C(=O)CCSc2ccc(S(=O)(=O)N3CCCC3)cc21)Nc1ccccc1,4,1,1,5504,-12,-4,2.6
Cc1ccc2[nH]c3nc(NN)nnc3c2c1,-6,-12,2,2638,11,-8,-0.3
Cc1cccc(NC(=O)C[n+]2ccc(N(C)C)cc2)c1,-3,-17,11,3205,-2,3,1.4
CS(=O)(=O)N1CCN(c2cccc(Cl)n2)CC1,1,-7,2,4518,·,·,2.0
